Bioassay records as filed in PubChem BioAssay.
SARS PLP yeast – blocks SARS-CoV papain-like protease in a yeast assay | Potency, µM (titrated, usually from 32.9 µM), without a hit: top-dose activity, positive = growth rescue | AID 485353 | S. cerevisiae expressing SARS-CoV PLpro, growth rescue; control for the full effect not named in the record | 330,000 compounds, 0.19% hits; active means well fitted rising curve with a large enough effect; inconclusive means small, poorly fitted or top-dose-only effect; inactive means no such curve, though single readings can be large or run the other way; also: 0% is about no effect; nearly all actives have a fitted effect of over 55% in size; growth read by luminescence after 48 h
RE007 growth inh – less growth of the S. pombe RE007 Vpr strain. Potency, µM (doses to about 92.2 µM), without a hit: at the highest dose activity change, negative = less growth. 360,000 compounds, 0.21% hits. S. pombe RE007 Vpr strain, BacTiter-Glo ATP luminescence, 24 h; control for the full effect not named in the record; active = well fitted falling curve with a large enough effect; inconclusive = small, poorly fitted or top-dose-only effect; inactive = no such curve, though single readings can be large or run the other way;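 also: % is scaled to controls: 0 for no effect and ±100 for the full control effect; nearly all actives have a fitted effect of over 50% in size; the assay follows cell death caused by Vpr and the record does not say whether a fall means rescue or toxicity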
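Fission yeast strain RE007, carrying one chromosomally integrated HIV-1 vpr copy, was seeded at OD 0.01 in PMG+AL medium with 23 nL pinned compound. After 24 h at 30 °C and 99% humidity, viability was read by BacTiter-Glo luminescence.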
Cruzain Triton – cruzain (T. cruzi) inhibition with detergent. 200,000 compounds, 0.43% hits. purified cruzain, Z-FR-AMC fluorescence, 0.01% Triton. Potency, µM, without a hit: max response, negative = inhibition, actives largely listed as inhibitors. P25779;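 also: plate controls were neutral wells for no effect and buffer without enzyme for full effect; nearly all actives have a fitted effect of over 40% in size; top concentration of the series not given in the record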
Target sequence (P25779 123-467 limits assumed): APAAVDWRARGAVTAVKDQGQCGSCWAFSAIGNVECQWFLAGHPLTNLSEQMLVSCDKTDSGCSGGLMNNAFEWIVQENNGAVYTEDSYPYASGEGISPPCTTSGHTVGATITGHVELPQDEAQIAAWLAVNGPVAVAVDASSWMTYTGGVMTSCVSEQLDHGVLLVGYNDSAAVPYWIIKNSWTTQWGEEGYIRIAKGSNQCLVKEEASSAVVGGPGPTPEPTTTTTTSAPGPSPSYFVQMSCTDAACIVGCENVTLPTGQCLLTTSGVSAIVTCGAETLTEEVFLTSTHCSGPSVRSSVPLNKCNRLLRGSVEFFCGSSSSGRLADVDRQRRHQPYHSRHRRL
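Cruzain (1.5 nM) preincubated 15 min at RT with compound in 100 mM sodium acetate pH 5.5, 5 mM DTT, 0.01% Triton X-100. Reaction started with 2 uM Z-FR-AMC; AMC fluorescence (ex 360/em 450 nm) change over 60 s gave rate.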
Marburg entry inh – blocks Marburg virus binding to or entry into cells; 300,000 compounds, 1.8% hits; Marburg virus pseudotyped entry inhibition, cell reporter; control for the full effect not named in the record; about a third of the inactives were read at about 46 µM; Potency, µM (series often up to 37.8 µM), without a hit: at the top dose activity change, negative = inhibition, most hits filed as inhibitors; active = well fitted inhibition curve with a large enough effect; inconclusive = small, poorly fitted or top-dose-only effect, or effect the other way; inactive = flat fitted curve, though single readings scatter; tested in HEK293 cells; about a fifth of its hits are not listed in these tables; also: % is scaled to controls: 0 for no effect and ±100 for the full control effect; luciferase read-out
Cruzain inh noDet – inhibitors of Trypanosoma cruzi cruzain without detergent; purified cruzain, Z-FR-AMC fluorescence, no detergent; Potency, µM, for the others: max response, negative = inhibition, most hits filed as inhibitors; 200,000 compounds, 2.3% hits;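 also: plate controls were enzyme without inhibitor for no effect and buffer without enzyme for full effect; nearly all actives have a fitted effect of over 40% in size; top concentration of the series not given in the record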
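Purified cruzain at 1.5 nM, pre-incubated 15 min with compound at room temperature in 100 mM sodium acetate pH 5.5, 5 mM DTT, 0.00005% Triton X-100. Reaction started with 2 uM Z-FR-AMC; AMC fluorescence increase over 60 s gives rate.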
LASV entry inh – Lassa virus entry inhibition; Lassa virus pseudotype entry inhibition, cell reporter; control for the full effect not named in the record; Potency, µM (titrated, usually from 37.9 µM), for the others: top-dose activity change, negative = inhibition, usual class: inhibitors; 300,000 compounds, 1.2% hits; AID 540256; active means well fitted inhibition curve with a large enough effect; inconclusive means small, poorly fitted or top-dose-only effect, or effect the other way; inactive means flat fitted curve, though single readings scatter; tested in HEK293 cells; also: % is scaled to controls: 0 for no effect and ±100 for the full control effect; nearly all actives have a fitted effect of over 50% in size; luciferase read-out
2A StopGo – lowers the luciferase signal of an FMDV 2A StopGo reporter; 410,000 compounds, 1.2% hits; AID 1159524; human cells with a luciferase reporter of 2A StopGo recoding; control for the full effect not named in the record; Potency, µM (doses to about 57.9 µM), for the others: top-dose signal change, negative = less light; active = well fitted falling curve with a large enough effect; inconclusive = small, poorly fitted or top-dose-only effect; inactive = no such curve, though single readings can be large or run the other way; tested in HEK293T cells; also: % is scaled to controls: 0 for no effect and ±100 for the full control effect; nearly all actives have a fitted effect of over 45% in size; luciferase light after 4 h
NS1 function inh – influenza NS1 inhibition. S. cerevisiae slowed by influenza A NS1, growth recovery by OD600. Potency, µM (doses to about 46.1 µM), for the others: at the highest dose activity, positive = more growth. 270,000 compounds, 0.4% hits. AID 2326; active means well fitted rising curve with a large enough effect; inconclusive means small, poorly fitted or top-dose-only effect; inactive means no such curve, though single readings can be large or run the other way; also: nearly all actives have a fitted effect of over 50% in size
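In this qHTS, NS1 from influenza A is expressed in budding yeast, where it slows growth. Cells are switched from glucose to 2% galactose medium (pH 6.0, -URA), treated with compound, and growth recovery is read at OD600.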
Active calls of the source: *; ? = inconclusive; . = not tested or not shown; & = joins results of further samples; [ ] = another dose, or the depositor's remark. Unless noted, calls follow the shape of the dose curve; as a rule, active = well fitted curve in the direction sought with a large enough effect; inconclusive = small, poorly fitted or top-dose-only effect, or another doubt; inactive = no such curve, though single readings can be large; an effect the other way counts as inactive or inconclusive. Potency is read from the fitted curve at half-maximal effect.

SMILES	SARS PLP yeast	RE007 growth inh	Cruzain Triton	Marburg entry inh	Cruzain inh noDet	LASV entry inh	2A StopGo	NS1 function inh
COC(=O)c1ccc([C@H]2Nc3ccc(S(=O)(=O)Nc4ccc(F)cc4)cc3[C@H]3C=CC[C@H]32)cc1	.	.	-16%	1%[46.1 µM]	-15%	16%[46.1 µM]	17%	.
COc1cccc(-n2cc3c(c2-c2ccccc2)c(=O)n(C)c(=O)n3C)c1	-3%	-7%	-0.4%	-13%	0%	?	-12%	-67%
O=C(O)Cn1c(SCc2cccc3ccccc23)nc2ccccc21	0%	10%	-3.4%	20%	-5%	3%	13%	-2%
Cc1ccc2ccccc2c1CSc1nc(N)nc2c1ncn2CC(C)C	.	1%	-1.9%	?	-5%	?	0%	0%
Cc1nc2cc(-c3cccc(F)c3)nn2c(C)c1CCC(=O)NCCc1ccccc1	.	.	-1.4%	-4%[46.1 µM]	-8%	-1%[46.1 µM]	-27%	.
COc1ccccc1CNC(=O)CCC1N=C2c3ccccc3N=C(SCC(=O)NCCc3ccccc3)N2C1=O (stereo not given)	.	.	2.7%	.	9%	16%[46.1 µM]	-16%	.
N#CC(=C(/N)Sc1ccccc1N)/C(C#N)=C(/N)Sc1ccccc1N	.	.	-20%	?	?	.	-19%	.
C=CCNCCCOc1ccc(Cl)cc1Br	-10%	-4%	-3.1%	?	-5%	16%	16%	-20%
N#C/C(=C/c1ccc(O)c([N+](=O)[O-])c1)C(=O)Nc1ccccc1	-16%	?	.	2.5µM*	.	-7%[46.1 µM]	?	.
O=C(c1ccco1)N1CCN(CC(=O)N2c3ccccc3CCc3ccccc32)CC1	1%	-10%	4.5%	16%&16%	7%	-12%	-28%	-12%
COc1ccccc1NC(=S)Nc1ccccc1F	-5%	2%	5.7%	6%	7%	2%	28%	14%
CCN(CC(=O)Nc1ccc2c(c1)OCCO2)C(=O)c1ccc(CS(C)(=O)=O)cc1	-3%	8%	.	21%[46.1 µM]	.	-4%[46.1 µM]	14%	.
CCOC(=O)NC(=O)c1cn(C(CC)CO)c(=O)[nH]c1=O (stereo not given)	-19%	-1%	4.0%	2%	0%	-9%	-6%	24%
COCCNC(=O)COc1cccc2c1OC(C)(C)C2	-3%	-5%	.	9%	.	-14%	-9%	2%
Cc1nc(NCCc2ccccc2)c2nnn(Cc3ccccc3Cl)c2n1	7%	-17%	.	1%	.	6%	-8%	8%
CC(C)CC(=O)NCC(C)NC(=O)CC(C)C (stereo not given)	0%	1%	-4.8%	-5%	9%	18%	-21%	1%
CN1CCN(C(=O)CN2C(=O)COc3ccc(S(=O)(=O)N4CCOCC4)cc32)CC1	11%	8%	.	.	.	.	19%	-5%
O=C(COc1ccccc1Cl)Nc1ccc(Cl)c(-c2nc3ccccc3o2)c1	.	.	-0.6%	7%[46.1 µM]	-19%	2%[46.1 µM]	-28%	.
CC(=O)c1cccc(OCC(=O)N(CCC2=CCCCC2)c2c(N)n(Cc3ccccc3)c(=O)[nH]c2=O)c1	.	1%	.	?	.	-23%	-13%	.
CCCc1cc(C(=O)Nc2ccc(OC)cc2[N+](=O)[O-])cs1	-6%	-7%	.	.	.	.	21%	-2%
CCCCn1c(N)c(N(CCOC)C(=O)CN2C(=O)c3ccccc3C2=O)c(=O)[nH]c1=O	?	4%	.	20%	.	6%	-22%	-9%
Cc1ccc(C(=O)O/N=C2\CCSc3ccc(C)cc32)cc1	0%	-10%	-0.8%	-1%	-15%	?	0%	9%
O=C(N=c1ccn(-c2nc3ccccc3nc2NS(=O)(=O)c2ccccc2)cc1)c1cccs1	6%	-1%	-1.5%	?	-6%	3%	0%	7%
CNc1nc2ccccc2n1/N=C/c1cccc(OC)c1OC	1%	-5%	-1.2%	-15%	0%	-4%	?	-23%
COc1ccccc1NC(=O)Cn1c(=O)n(-c2cccc(Cl)c2)c(=O)c2sc3ccccc3c21	.	.	0.5%	?	-5%	?	-28%	.
SMILES	SARS PLP yeast	RE007 growth inh	Cruzain Triton	Marburg entry inh	Cruzain inh noDet	LASV entry inh	2A StopGo	NS1 function inh
COC(=O)c1sc(NC(=O)CSc2nc3cccnc3n2C)nc1C	0%	5%	.	1%[46.1 µM]	.	2%[46.1 µM]	-7%	0%
O=C(Cn1nnc(-c2ccccc2)n1)NC(=O)NC1CCCC1	5%	-3%	.	3%	.	-1%	-10%	.
N#CCCN(C(=O)COC(=O)/C=C/c1cccs1)c1ccccc1	19%	1%	.	-1%[46.1 µM]	.	-20%[46.1 µM]	-11%	.
C=CCOc1ccccc1/C=N/NC(=O)Cc1ccccc1	-11%	1%	.	.	.	.	12%	-34%
N#CCC(=O)N/N=C\c1cc(Br)ccc1OC/C=C/c1ccccc1	1%	5%	.	13%[46.1 µM]	.	1%[46.1 µM]	4%	?
O=C1CN(C(=O)c2ccco2)c2ccccc2N1	4%	3%	5.7%	4%	3%	-8%	10%	3%
C=CCCC(=O)N1CCC(Oc2cccc(C(=O)NCc3ccccn3)c2)CC1	0%	-7%	.	-23%	.	6%	-28%	-13%
CCOc1ccc(-c2cc(C)[n+](CCN(CC)CC)c(-c3ccc(OCC)cc3)c2)cc1	0%	-2%	.	.	.	.	?	-3%
COc1ccc(NC(=O)CCc2c(C)nc3c(-c4ccc(F)cc4)c(C)nn3c2C)c(OC)c1	.	.	1.0%	?	-6%	27%[46.1 µM]	?	.
COc1ccc(NC(=O)CN(C)C(=O)Cc2ccc3c(c2)CCC3)cc1	?	1%	.	4%[46.1 µM]	.	2%[46.1 µM]	-12%	13%
Cc1ccc(CNC(=O)CCCCCn2c(=O)c3sccc3n(CC(=O)Nc3c(C)cc(C)cc3C)c2=O)cc1	.	.	-2.0%	8%[46.1 µM]	-7%	1%[46.1 µM]	5%	.
O=C(c1ccc(Nc2cccc(C(F)(F)F)c2)nc1)N1CCCC1	-6%	5%	-6.5%	?	?	-19%	-7%	-17%
Cc1ccc(CNS(=O)(=O)c2ccc3oc(C(=O)O)c(C)c3c2)cc1	-6%	-1%	0.0%	0%	2%	4%	-9%	9%
COc1ccccc1N1CCN(C(=S)Nc2ccc(S(=O)(=O)N3CCOCC3)cc2)CC1	0%	2%	.	?	.	?	25µM*	-5%
CCOC(=O)C1(C(F)(F)F)N=C(c2cccnc2)OC(N2CCCCC2)=N1 (stereo not given)	13%	7%	-1.5%	13%	17%	?	-20%	-7%
Cc1ccccc1OCc1nnc2c3cnn(C)c3ncn12	1%	-6%	4.6%	16%	-6%	23%	32%[activator]	-13%
COc1cccc(CNc2ccc([N+](=O)[O-])cc2C)c1	-1%	8%	.	-22%	.	?	-15%	-1%
COc1ccc(C(=O)Cn2c(N3CCOCC3)nc3ccccc32)cc1OC	7%	.	1.4%	.	7%	.	.	?
C[C@]12CCC3C(CC[C@H]4C[C@H](N)CC[C@]34C)C1CC[C@H]2O (stereo not given in full)	1%	5%	.	.	.	.	-6%	-2%
COc1ccc(C(=O)/C=C/C(=O)N(Cc2ccccc2OC)C(C(=O)NC2CCCCC2)c2ccncc2)c(O)c1 (stereo not given)	-31%	-8%	-5.9%	?	?	?	13%	12%
O=C(Nc1cccnc1)C1CCN(S(=O)(=O)c2cccs2)CC1	0%	-8%	.	.	.	.	-18%	-1%
Cc1ccccc1Nc1nc(N)nc(CSc2nnc(C)n2C)n1	4%	10%	.	12%[46.1 µM]	.	.	5%	6%
O=C(CSc1ccc2nnc(-c3cccnc3)n2n1)Nc1ccc(F)cc1F	18%	9%	.	16%	.	2%	-5%	7%
Nc1nonc1C(=O)NCCNC(=O)c1cccs1	7%	-6%	4.7%	-5%	-1%	0%	.	-5%
COc1cc(C(C)=O)ccc1OCC(O)CN1CCN(c2cc(C)cc(C)c2)CC1 (stereo not given)	1%	-7%	.	.	.	.	-30%	1%
SMILES	SARS PLP yeast	RE007 growth inh	Cruzain Triton	Marburg entry inh	Cruzain inh noDet	LASV entry inh	2A StopGo	NS1 function inh
O=C(Nc1ccccc1F)c1nc(S(=O)(=O)Cc2ccccc2F)ncc1Cl	.	.	-6.8%	?	-11%	?	?	.
CC(C)(C)P(=O)(NCc1ccccc1)c1ccccc1 (stereo not given)	-1%	12%	.	12%[46.1 µM]	.	12%	-4%	.
Cc1ccc(C(=O)C2CN(C)CC2C(=O)c2ccc(C)cc2)cc1 (stereo not given)	-6%	-3%	2.9%	1%	10%	1%	-5%	0%
Cc1cc2oc(=O)cc(CN3CCN(S(=O)(=O)c4cccs4)CC3)c2cc1C	7%	1%	0.2%	14µM*	-21%	14µM*	?	7%
CCOC(=O)N1CCC(NC(=O)Cn2nc(-c3ccccc3)ccc2=O)CC1	-1%	10%	-0.5%	8%	4%	12%	.	-3%
O=C(CCCSc1nc(-c2ccco2)cc(C(F)(F)F)n1)Nc1ccc2c(c1)OCO2	.	21%	-4.0%	-3%	-16%	-6%	-17%	-38%
COc1ccc(CSc2nnc(-c3ccncc3)n2C)cc1F	2%	-12%	.	10%[46.1 µM]	.	16%[46.1 µM]	6%	-5%
CN(Cc1cc2ccccc2[nH]c1=O)C(=O)c1cccs1	-2%	7%	.	10%[46.1 µM]	.	4%[46.1 µM]	-6%	.
Cc1nccn1CCC1CCCCN1C(=O)CCc1nnc(-c2ccsc2)o1 (stereo not given)	1%	-27%	.	13%[46.1 µM]	.	-9%	0%	0%
COc1ccc(/C=N/OCC(=O)N(Cc2ccc(OC)cc2)c2ccccc2C(=O)O)cc1	-24%	0%	-3.8%	6%	?	2%	46%[activator]	0%
Cc1nn2c(Nc3ccc(F)cc3)c3c(nc2c1-c1ccccc1)CCC3	11%	1%	-7.5%	-1%	-5%	-3%	-16%	0%
COc1ccc(NC(=O)C(CC(C)C)NS(=O)(=O)c2ccc3c(c2)CCN3C(C)=O)cc1OC (stereo not given)	3%	-1%	-3.1%	11%	10%	-2%	.	-1%
Cc1nn(Cc2ccccc2)c(Cl)c1C(=O)NCCc1ccccc1	23%	-1%	-3.0%	.	7%	.	22%	-11%
